VDR inhibitor = vitamin D3 receptor (human) inhibition. VDR-SRC2-3 peptide fluorescence polarization, 2 h. AID 504847. Potency, µM, for inactives: max response, negative = inhibition, usual class: inhibitors. P11473. actives 0.93% (n = 400,000); active = well fitted inhibition curve with a large enough effect; inconclusive = small, poorly fitted or top-dose-only effect, or another doubt; inactive = no such curve, though single readings can be large or run the other way; also: series mostly up to about 120 µM
Target sequence (P11473 whole entry, looked up): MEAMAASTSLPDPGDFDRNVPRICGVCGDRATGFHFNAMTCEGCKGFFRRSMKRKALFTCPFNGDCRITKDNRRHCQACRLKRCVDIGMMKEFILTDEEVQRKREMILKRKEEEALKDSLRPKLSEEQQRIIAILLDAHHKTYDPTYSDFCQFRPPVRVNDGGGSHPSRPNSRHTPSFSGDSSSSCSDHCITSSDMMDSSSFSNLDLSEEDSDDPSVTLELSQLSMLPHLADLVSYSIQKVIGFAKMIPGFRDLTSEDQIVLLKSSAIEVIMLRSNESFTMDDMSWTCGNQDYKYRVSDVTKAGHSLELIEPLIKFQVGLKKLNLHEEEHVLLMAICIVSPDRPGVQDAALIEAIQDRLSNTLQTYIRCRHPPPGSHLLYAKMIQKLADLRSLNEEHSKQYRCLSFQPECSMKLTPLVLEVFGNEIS
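Measured by FP: displacement of SRC2-3 coactivator peptide from VDR by library compounds, following a two-hour ambient incubation.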
* marks the source's active call; other numbers are inactive results; ? = inconclusive; & = joins results of further samples. % is scaled to controls: 0 for no effect and ±100 for the full control effect; potency is read from the fitted curve at half-maximal effect. An excerpt, so the mix of outcomes need not match the whole.

SMILES	VDR inhibitor
O=C(CC1C(=O)NCCN1Cc1cccc(Oc2ccccc2)c1)NCc1cccnc1 (centres undefined)	-8%
CCc1ccc(NC(=O)CCNS(=O)(=O)c2cccc3nsnc23)cc1	-4%
Cc1ccccc1N1C(=O)C2C3CC(=O)C(c4ccccc43)C2C1=O (centres undefined)	-12%
Cc1noc(-c2ccc(-c3noc(-c4cccc(F)c4)n3)cc2)n1	13%
CC(=O)c1ccc(NC(=S)Nc2ccc(N3CCOCC3)cc2)cc1	-19%
O=C1N(Nc2ccccc2)C(c2ccc(Br)cc2)C12CCCCC2 (centres undefined)	2%
O=C(C(c1ccccc1)c1ccccc1)N1CCN(Cc2ccc(Br)cc2)CC1	-20%
COc1cccc2c3c(c(=O)[nH]c12)CCC(C)(C)O3	-1%
O=C(COC(=O)C(Cc1c[nH]c2ccccc12)NC(=O)c1ccc(Br)cc1)c1ccc(Cl)cc1 (centres undefined)	3%
CC1=C(C(=O)Nc2cccnc2)C(c2ccccc2)n2nc(SCc3ccccc3)nc2N1 (centres undefined)	-22%
CCCCn1c(N)c(N(CCOC)C(=O)c2cc(=O)[nH]c3ccccc23)c(=O)[nH]c1=O	13%
COc1ccc(CCn2c3c(c(=O)[nH]c2=O)C(NC(=O)c2ccccc2F)(C(F)(F)F)C(=O)N3)cc1OC (centres undefined)	-14%
O=C(Nc1ccc(N2CCOCC2)cc1)C1CCN(C(=O)OCc2ccccc2)CC1	8%
COc1ccccc1NC(=O)Nc1nc(CC(=O)Nc2cc(F)ccc2F)cs1	-4%
Cc1ccc2c(c1)c1c3n2CCN(C=O)C3CCC1 (centres undefined)	4%
COc1ccc(CCNC(=O)C2=COCCO2)cc1	-14%
COc1ccc(CN2C(=O)CSC2c2ccccn2)cc1 (centres undefined)	-3%
O=C1Nc2cc(Cl)c(Cl)cc2N(O)N1c1ccc(Cl)cc1	-13%
O=S(=O)(NCCC1CC1(Cl)Cl)c1ccc(Cl)cc1 (centres undefined)	8%
O=C(O)c1ccc(-c2ccco2)n1Cc1ccccc1	-4%
CCN(CC)S(=O)(=O)c1ccc2[nH]c(=O)cc(C(=O)Nc3ccc(C)c(S(=O)(=O)N(CC)CC)c3)c2c1	-1%
COc1ccc(C(CNC(=O)COc2ccccc2OC)N(C)C)cc1OC (centres undefined)	5%
CN1C(=O)c2cccc(NCCCCCCN3C(=O)c4ccccc4C3=O)c2C1=O	-3%
COC(=O)c1nnn(CC(=O)Nc2ccc(Br)c(C)c2)c1N	-13%
Cc1cccc(NC(=O)c2ccccc2OCC(=O)c2ccc(F)cc2)c1	18%

As a short view, 19 of the compounds above:
SMILES	VDR inhibitor
O=C(CC1C(=O)NCCN1Cc1cccc(Oc2ccccc2)c1)NCc1cccnc1 (centres undefined)	-8%
CCc1ccc(NC(=O)CCNS(=O)(=O)c2cccc3nsnc23)cc1	-4%
Cc1ccccc1N1C(=O)C2C3CC(=O)C(c4ccccc43)C2C1=O (centres undefined)	-12%
Cc1noc(-c2ccc(-c3noc(-c4cccc(F)c4)n3)cc2)n1	13%
CC(=O)c1ccc(NC(=S)Nc2ccc(N3CCOCC3)cc2)cc1	-19%
O=C1N(Nc2ccccc2)C(c2ccc(Br)cc2)C12CCCCC2 (centres undefined)	2%
O=C(C(c1ccccc1)c1ccccc1)N1CCN(Cc2ccc(Br)cc2)CC1	-20%
COc1cccc2c3c(c(=O)[nH]c12)CCC(C)(C)O3	-1%
O=C(COC(=O)C(Cc1c[nH]c2ccccc12)NC(=O)c1ccc(Br)cc1)c1ccc(Cl)cc1 (centres undefined)	3%
CC1=C(C(=O)Nc2cccnc2)C(c2ccccc2)n2nc(SCc3ccccc3)nc2N1 (centres undefined)	-22%
CCCCn1c(N)c(N(CCOC)C(=O)c2cc(=O)[nH]c3ccccc23)c(=O)[nH]c1=O	13%
COc1ccc(CCn2c3c(c(=O)[nH]c2=O)C(NC(=O)c2ccccc2F)(C(F)(F)F)C(=O)N3)cc1OC (centres undefined)	-14%
O=C(Nc1ccc(N2CCOCC2)cc1)C1CCN(C(=O)OCc2ccccc2)CC1	8%
COc1ccccc1NC(=O)Nc1nc(CC(=O)Nc2cc(F)ccc2F)cs1	-4%
Cc1ccc2c(c1)c1c3n2CCN(C=O)C3CCC1 (centres undefined)	4%
COc1ccc(CCNC(=O)C2=COCCO2)cc1	-14%
COc1ccc(CN2C(=O)CSC2c2ccccn2)cc1 (centres undefined)	-3%
O=C1Nc2cc(Cl)c(Cl)cc2N(O)N1c1ccc(Cl)cc1	-13%
O=S(=O)(NCCC1CC1(Cl)Cl)c1ccc(Cl)cc1 (centres undefined)	8%

(further entries)
SMILES	VDR inhibitor
C=CCNC(=S)N1CCN(c2ccc([N+](=O)[O-])cc2)CC1	-7%
Cc1c(/C=N/n2cnnc2)c2ccccc2n1C	-2%
Nc1c(C=C2C=CC(=O)C=C2)c(=O)nc2sc(CC(=O)N3CCCC3)nn12	15%
Cc1ccc(OCc2nnc(SCC(=O)CC(=O)Nc3ccccc3)o2)cc1	4%
Cn1nnnc1SCCCNCc1ccc(-c2ccc(F)c(Cl)c2)o1	9%
O=C(CC1CCCC1)NCCS(=O)(=O)N1CCN(c2ccc(F)cc2)CC1	2%
CCCCCCCCNC1=CC(=O)CC(C)(C)C1	3%
Nc1ccc(C(=O)O)c(O)c1	-10%&-4%&5%&-6%&-19%
O=S(=O)(NCC1CC1)c1ccc(F)c(Cl)c1	-12%
CCCCn1c(CNC(=O)C23CC4CC(CC(C4)C2)C3)nnc1SCC(=O)Nc1ccccc1	7%
Cc1ccc(N2CC(C(=O)Nc3ccccc3C(=O)N3CCOCC3)CC2=O)cc1 (centres undefined)	14%
Clc1ccccc1OCc1nnc(-c2ccccc2)o1	10%
O=C(N/N=C/c1ccc(OC(=O)c2ccc([N+](=O)[O-])cc2)cc1)c1cccnc1	4%
CC(=O)N1c2ccc(F)c(F)c2C[C@H]1C	-16%
COc1c(C)cccc1C(=O)NCc1ccc2c(c1)OCO2	-14%
C(#CCN1CCOCC1)COCCOC(c1ccccc1)c1ccccc1	-22%
COc1ccccc1Cn1c(/C=C/c2ccccc2)nc2ccccc21	-10%
COc1ccc(C(=O)NCC(=O)N/N=C/c2ccc(C)o2)cc1OC	-16%
COc1cccc(/C=C2\SC(=O)N(CCC(=O)NNC(=O)c3cccc(Cl)c3)C2=O)c1	-17%
Cc1ccc(C)c(NC(=O)Nc2cc3c(cc2N2CCCCC2)n(C)c(=O)n3C)c1	-6%
O=C(CSc1ncccc1C(=O)O)c1ccccc1	0%
CC(C)OC(=O)c1ccc(NC(=O)c2ccccc2)cc1	6%
COc1ccc(-c2nc(Cn3c(=O)cc(C)c4c(C)nn(-c5ccccc5)c43)c(C)o2)cc1OC	-3%
COC(=O)c1cn(NC(=O)c2ccc([N+](=O)[O-])cc2Cl)c(=O)c2ccccc12	-5%
FC(F)(F)c1nc2ccccc2[nH]1	-2%

Next section
SMILES	VDR inhibitor
CC(=O)c1cccc(NC(=O)c2cc(-n3cnnc3)ccc2Cl)c1	13%
CCC1CCCCN1C(=O)CSc1nc(N)c(NC(=O)c2ccc(OC)c(OC)c2)c(=O)[nH]1 (centres undefined)	-7%
Cc1ccc(C)c(N2CCN(C(=O)c3cc(S(=O)(=O)N4CCOCC4)cn3C)CC2)c1	-11%
CCc1noc2nc(C)n(CC(=O)O)c(=O)c12	-15%
COc1cc(C(=O)O/N=C2\C=CC(=O)C(C)=C2)cc(OC)c1OC	?
COc1cccc(CCNC(=O)c2ccc(Cn3c(SCc4ccccc4)nc4cccnc43)cc2)c1	0%
Cc1cccc(CNC(=O)C2CCN(S(=O)(=O)c3cccc4nonc34)CC2)c1	9%
CCC1Nc2ncnc(N3CCOCC3)c2N(Cc2ccc(OC)cc2)C1=O (centres undefined)	79µM*
O=C(CCCN1C(=O)/C(=C\c2cccc(Br)c2)SC1=S)Nc1cccnc1	4%
COC(=O)c1ccccc1NC(=O)NCCc1c(C)nn(C)c1C	9%
O=C(c1cccn(Cc2ccc(Cl)c(Cl)c2)c1=O)N1CCOCC1	3%
Cc1ccc2nsnc2c1NC(=O)c1sc2ccccc2c1Cl	-14%
C=CCc1ccc(OCc2ccc(C(=O)O)o2)c(OC)c1	-19%
C=CCOC(=O)C1=C[C@@H](c2ccc(Br)cc2)C[C@@H](OCCCCO)O1	-12%
COc1ccc(NC(=O)CSCC(=O)N(C)CC(=O)Nc2c(C)cccc2C)cc1	10%
CC1CCN(c2ccc(-c3ccc(NC(=O)C(F)(F)F)cc3)nn2)CC1	-8%
CCN(CC)c1nc2c(S(=O)(=O)c3cccc(Cl)c3)nnn2c2ccsc12	-8%
CCCCNC(=O)C(=O)Nc1cc2c3c(c1)CCC(=O)N3CCC2	3%
Cc1onc(-c2ccccc2)c1C(=O)Nc1nc(-c2ccccc2)cs1	-9%
O=C(CNC(=O)c1ccc(Cl)c([N+](=O)[O-])c1)OCN1C(=O)c2ccccc2C1=O	-13%
Cc1cc(C)cc(N2CC(O)=C(c3nc4ccccc4c(=O)[nH]3)C2=N)c1	10%
COc1cccc(-c2nnc(NC(=O)c3ccco3)s2)c1	-20%
Cc1ccc(C)c(NC(=S)N(C2CCCCC2)C(C)c2cccnc2)c1 (centres undefined)	15%
COCc1nc2cccnc2n1C1CCN(S(=O)(=O)N(C)C)CC1	0%
CCOC(=O)C1(CCOc2ccccc2)CCN(Cc2cccc3c2OCO3)CC1	-2%

More entries
SMILES	VDR inhibitor
COc1ccc(CN(C)C(=O)CCl)cc1	-7%
COc1cc(S(=O)(=O)Nc2ccc(C)cc2)ccc1N=Cc1c(C)c(C#N)c(=O)n(C)c1O	22%
Cc1nc(-c2cccc(Cl)c2)n[nH]1	7%
CCOC(=O)CCCCCC(=O)Nc1ccc2c(c1)CC(=O)N([C@@H](C)CO)C[C@@H](C)[C@@H](CN(C)C(=O)Nc1ccc(C(F)(F)F)cc1)O2	-26%
N#CC(C#N)=C1C(=O)N(CCN2CCOCC2)c2ccccc21	?
COc1ccc(CCNc2cc(C)nc3c(-c4ccc(Cl)cc4)cnn23)cc1OC	-13%
CCNC(=O)COC(=O)c1cccc(Br)c1	-15%
Cn1cccc1/C=C1\SC(=S)N(NC(=O)c2ccccc2)C1=O	0%
CCc1onc(C)c1C(=O)Nc1ccc(N2CCOCC2)cc1	-2%
CCOC(=O)C1CCCN(C(=O)c2ccc(Cl)cc2)C1 (centres undefined)	15%
COC(C/C=C/C(=O)[C@H](C)OCc1ccccc1)OC	?
O=C(NCCC1=CCCCC1)N[C@@H](Cc1ccccc1)C(=O)O	-1%
CC(C)[C@@H](C(=O)NC1CCCC1)N1C(=O)N2CCc3c([nH]c4ccccc34)[C@@]2(C)C1=O	-11%
COc1ccccc1NC(=O)c1ccc2c(c1)OCO2	6%
NNC(=O)c1cc2cc3ccccc3nc2s1	0%
CCC(C)(C)NC(=O)C(c1ccc(C)cc1)N(CC1CCCO1)C(=O)CNC(=O)c1cccs1 (centres undefined)	-16%
CCOC(=O)c1c(C)[nH]c(C)c1C(=O)CSc1nc2ccccc2c(=O)n1-c1ccc(F)cc1	-6%
COc1ccc(CCNC(=O)CSc2nnc(-c3cccc(C)c3)o2)cc1OC	-4%
COc1ccc(C(=O)NCc2csc(C(C)C)n2)cc1OC1CCN(C(C)=O)CC1	-13%
Cc1cc(-n2c(C)cc(C(=O)CSc3nnnn3-c3ccccc3)c2C)no1	10%
CCCCn1nc(C(=O)OCC(=O)Nc2sccc2C(N)=O)c2ccccc2c1=O	16%
Cc1ccc(NC(=O)CNc2cc(S(=O)(=O)N3CCOCC3)ccc2N2CCOCC2)cc1S(=O)(=O)N(C)C	-17%
Nc1ccc2oc(-c3ccccn3)nc2c1	14%
O=C(CCS(=O)(=O)Cc1ccccc1F)N1CCc2ccccc2C1	17%
S=C(NCc1ccccn1)NN=Cc1ccccn1	3%

Next structures
SMILES	VDR inhibitor
Cc1noc(C)c1C(=O)N1CCc2ccccc2C1	4%
COC(=O)c1ccc(NC(=O)CCS(=O)(=O)c2ccc(C)cc2)cc1	-17%
O=C(CSc1nnc(-c2ccc(O)cc2)o1)NNC(=O)c1ccncc1	-12%
CCOC(=O)C1CCCN(C(=O)C(C)Oc2ccc(Cl)cc2Cl)C1 (centres undefined)	2%
NS(=O)(=O)c1ccc(CCNC(=O)COC(=O)CCSc2ccc(Cl)cc2)cc1	-23%
Fc1ccccc1OCC1CCCN(Cc2nc(CC3CC3)no2)C1 (centres undefined)	6%
Cc1ccc(C)c(N2CCN(CC(=O)Nc3ccc([N+](=O)[O-])cc3C(=O)Nc3ccccc3F)CC2)c1	-16%
COc1ccc(N2CCN(C(c3ccccc3)c3nnnn3Cc3ccc(F)cc3)CC2)cc1 (centres undefined)	-5%
COc1ccc(S(=O)(=O)N2CCCCCC2)cc1NC(=O)CCc1cc(OC)c(OC)c(OC)c1	8%
Cc1c(N)cccc1-n1cnnn1	10%
Cc1cccc(CN2CCNC2=O)c1	8%
N#C/C(=C\c1cccnc1)c1ccc(Br)cc1	0%
COc1ccc(C(CNC(=O)c2cccc(NC(=O)c3cccs3)c2)N2CCCC2)cc1 (centres undefined)	4%
CCOC(=O)c1c(CN2CCCCC2)n(C)c2cc(Br)c(O)cc12	10%
Cc1c(C(=O)NC(=S)Nc2ccc(N3CCOCC3)cc2)cccc1[N+](=O)[O-]	-7%
COc1ccc(CC(=O)OCC(=O)NCc2ccc(Cl)cc2)cc1	15%
Cc1c(Cl)cccc1NS(=O)(=O)c1c(C(=O)N2CCOCC2)c(C)n(C)c1C	2%
COc1ccc(CN(Cc2cc3ccc(C)cc3[nH]c2=O)Cc2nnnn2C2CCCC2)cc1	0%
O=C(Nc1ccccc1-c1nnn(CC(=O)N2CCCc3ccccc32)n1)c1ccc(Cl)cc1	4%
CC(C)(C)OC(=O)C(Cc1ccc(OC(C)(C)C)cc1)NC(=O)CNC(=O)OCc1ccccc1 (centres undefined)	12%
CC(C)[C@H](NC(=O)N1CC(=O)Nc2ccccc21)C(=O)N1CCC[C@@H]1C(=O)O	-19%
COC(C/C=C/[C@H](O)[C@H](C)OCc1ccccc1)OC	-16%
CCOC(=O)c1cc(CC)sc1NC(=O)Cc1ccsc1	-6%
Cc1c(C(=O)Nc2ccccc2Br)oc2ccc(S(=O)(=O)N3CCCCCC3)cc12	14%
CCOC(=O)CCNC(=O)N1CCCC(CNS(=O)(=O)c2cccs2)C1 (centres undefined)	-10%
